Tg IFNy HTS: blocks Toxoplasma gondii growth in the presence of IFN-gamma. Toxoplasma gondii growth in IFN-gamma-treated host cells; stronger effect = lower value; reference of the scale not given here. activity change, negative = inhibition, %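 (about 20 µM by stock and volumes)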. hit rate 3.8% among 69,000. AID 1259416;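 active means below -70%; inconclusive means fit judged invalid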;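 further: host cells are HeLa cells infected with Toxoplasma gondii; parasite growth read as luciferase light; one replicate is shown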
* = called active by the depositor; i = inactive; ? = inconclusive. Not all compounds are listed; rates above refer to the full screens.

SMILES	Tg IFNy HTS
c1cncc(CN2CCC3(COCc4cnc(N5CCOCC5)nc43)C2)c1 (stereo unspecified)	-3.5
O=C(CSCC(=O)N1c2ccccc2CCc2ccccc21)N1CCc2ccccc21	-35.3
CCOc1cccc(C2c3[nH]c4ccccc4c3CCN2C(=O)c2ccc3c(c2)OCO3)c1 (stereo unspecified)	i
O=C(NCc1ccco1)/C(=C\C=C\c1ccccc1)NC(=O)c1ccccc1Br	15.8
Cc1cc(C(F)(F)F)nc(CCNC(=O)CC2COCCN2)n1 (stereo unspecified)	5.2
CCOCC1CN(C(=O)c2ccnnc2)Cc2cnn(C)c21 (stereo unspecified)	-16.1
CCOC(=O)CSc1nnc(Cc2ccc(Cl)cc2)c(=O)[nH]1	18.4
CC(C)C[C@H](NC(=O)NC(C)C)C(=O)O	3.1
O[C@@H]1CN(c2nnnn2-c2ccccc2)CC[C@H]1c1ccc2c(c1)OCO2	0.6
CC(C(=O)N1CCN(C)C2(CCN(C)CC2)C1)n1cnc2ccccc21 (stereo unspecified)	-49.8
C#CCOc1c(C)c(C)nc2cc(C3CCOCC3)nn12	1.5
Cc1cc(NC(=O)CC2CCCCC2)n(-c2ncnc3c2cnn3-c2ccc(Cl)cc2)n1	16.1
COc1cccc(CN2CCN(Cc3ccc(-n4cccn4)cc3)CC2=O)c1	-6.7
Cc1cnc(N2C[C@@H](c3ccccc3)[C@@]3(CCNC3=O)C2)nc1	-42.1
COCCN(Cc1cnn(C)c1)C(=O)C1CC2(CCNCC2)CN1 (stereo unspecified)	121.8
CC(C)C1C(=O)NCCN1C(=O)c1cc(=O)c2ccccc2[nH]1 (stereo unspecified)	7.3
CC(C)c1ncc(C(=O)N2CCCC3(C2)C(=O)Nc2ccccc23)c(=O)[nH]1 (stereo unspecified)	-16.7
O=C(CC1Nc2c3ccccc3nc(=S)n2C1=O)N1CCN(c2ccc(Cl)cc2)CC1 (stereo unspecified)	-16.2
O=C(c1cn(-c2ccccc2)nn1)N1CCCCC1CCn1cccn1 (stereo unspecified)	-3.8
Cc1cc(C(F)(F)F)n(-c2nc(C(=O)N3CC[C@H](O)[C@@H](O)C3)cs2)n1	-3.2
O=C1C[C@H]2CC[C@@H](CN1)N2C(=O)CCn1nnc(-c2ccccc2)n1	-38.5
O=C(NCC1CC1)C1CCC2(CCN(C(=O)c3ccccn3)CC2)O1 (stereo unspecified)	1.6
COc1cccc(NC(=O)c2ccc3c(c2)[nH]c(=O)n3C2CCCCC2)c1	-82.9*
Cc1ccc(CN2CCC3(CC2)CC(CC(=O)NCC2CC2)c2ccccc23)o1 (stereo unspecified)	-29.5
Cc1cnc(C(=O)N2CC[C@@H]3C[C@@H](c4ccnc(C)n4)O[C@H]3C2)cn1	0.5
C[C@H](NC(=O)C[C@H]1CC[C@@H]2[C@H](COC[C@@H](O)CN2C(=O)Nc2cccc(Cl)c2)O1)c1ccccc1	-59.3
C[C@@H]1CN([C@@H](C)CO)C(=O)c2cc(NS(=O)(=O)c3cccs3)ccc2O[C@@H]1CN(C)S(=O)(=O)c1ccc(Cl)cc1	-30.0
COc1ccc2c3c(n(C)c2c1)[C@H](CO)N(C(=O)C1CCC1)CC31CCN(CC2CCCC2)CC1	-32.1
CN(Cc1nc(-c2ccccc2)no1)C(=O)c1ccc(CO)o1	10.9
C=COCC(F)(F)F	19.0
O=C(COCc1nc2ccccc2[nH]1)N1CCC(CCN2CCOCC2)CC1	-6.4
CNC(=O)[C@@H]1C[C@@H](N)CN1Cc1cccc(Oc2ccc(Cl)cc2)c1	-29.1
OC[C@@H]1[C@H](c2ccc(C#CC3(O)CCCC3)cc2)[C@H]2CN(Cc3cncnc3)CCCCN12	-5.1
COCC12CCCOC1CCN(S(=O)(=O)C1CC1)C2 (stereo unspecified)	5.5
CC(=O)N1[C@H](CO)[C@@H](c2ccc(-c3ccc(C#N)cc3)cc2)C12CN(C(=O)C1CC1)C2	31.4
O=C(O)CCN1C(=O)c2ccc(Br)cc2C1=O	8.7
CC1CCCN(C(=O)c2cc3cccnc3n(Cc3ccccc3)c2=O)C1 (stereo unspecified)	-20.1
N#C[C@H]1[C@H](c2ccccc2)[C@@H](CO)N1S(=O)(=O)c1cccc(F)c1	2.6
CC(C)N(C)Cc1noc2c1CN(Cc1ccoc1)CC2	0.5
CN(C)C(=O)c1ccc2c(c1)N(C)C(CC(=O)NCCc1ncnn1C)CO2 (stereo unspecified)	-8.1
Cc1ccc(Nc2ccc(C(=O)N3CCCCC3)cn2)cc1	311.8
C=CCc1cc(CN2[C@@H]3CC[C@H]2CN(C)C(=O)C3)ccc1OC	?
O=C(NCCc1nc2ccccc2[nH]1)c1cccs1	13.1
CCN(C(=O)c1cccc2c1OCC2)C1CCS(=O)(=O)C1 (stereo unspecified)	25.4
CCOC(=O)COc1ccc(S(=O)(=O)Nc2ccc3c(c2)OCCO3)cc1	2.2
CNC(=O)c1ccc(-c2cc(NCc3ccccn3)nc3[nH]ccc23)o1	14.5
Cc1ccc2nc(CN(C)C(=O)C(C)n3ccnc3C(C)C)[nH]c2c1 (stereo unspecified)	-27.7
COCC(=O)N1CC2(CN(S(C)(=O)=O)C2)c2c(n(C)c3cc(OC)ccc23)[C@@H]1CO	161.7

Molecules shown so far with a COOH group:
SMILES	Tg IFNy HTS
CC(C)C[C@H](NC(=O)NC(C)C)C(=O)O	3.1
O=C(O)CCN1C(=O)c2ccc(Br)cc2C1=O	8.7

Back to the main list; the 2 compounds before the break are reprinted first.
SMILES	Tg IFNy HTS
Cc1ccc2nc(CN(C)C(=O)C(C)n3ccnc3C(C)C)[nH]c2c1 (stereo unspecified)	-27.7
COCC(=O)N1CC2(CN(S(C)(=O)=O)C2)c2c(n(C)c3cc(OC)ccc23)[C@@H]1CO	161.7
CN1C(=O)c2cc(NC(=O)Cc3cccs3)ccc2OC[C@@H]2O[C@H](CC(=O)NCC3CCCCC3)CC[C@H]21	-10.6
C[C@H](CO)N1C[C@H](C)[C@@H](CN(C)Cc2cccnc2)OCc2ccccc2-c2ccccc2C1=O	-16.2
O=C(c1cccc(Cl)c1F)N1CCN(Cc2cccc(Nc3nccs3)n2)CC1	-67.2
O=S(=O)(NCc1ccccc1)NC1CCN(CC2CCCO2)CC1 (stereo unspecified)	-1.5
COc1ccccc1CC(=O)Nc1ccc2c(c1)CCC(=O)N2	58.7
C[C@H](NC(=O)Cc1cc(F)cc(F)c1)C(=O)N[C@H](C(=O)OC(C)(C)C)c1ccccc1	32.0
c1cncc(N2CCOC3CCN(Cc4ccc[nH]4)CCC32)c1 (stereo unspecified)	-63.6
COc1ccc(CC(=O)N2CCCC(c3nn(C)c4nccnc34)C2)cc1 (stereo unspecified)	35.2
Cc1cc(C)n(C)c(=O)c1C(=O)N(Cc1ccccn1)CC1CCCO1 (stereo unspecified)	41.0
Cc1cc(S(N)(=O)=O)ccc1OCC(=O)O	64.0
CCn1nnc2c1C(COC)CN(C(=O)c1cnoc1C)C2 (stereo unspecified)	38.4
CCCS(=O)(=O)N1CC[C@@H]2[C@@H](CO[C@H]2CNc2ncccn2)C1	-38.8
c1ccc(OCC23CCCOC2CCN(c2ncccn2)C3)nc1 (stereo unspecified)	2.3
CCN(C(=O)c1cccc(NC(=O)CN2CCOC2=O)c1)c1ccccc1	5.8
O=C(CN1CCCC(c2nccnc2-n2ccnc2)C1)N1CCOCC1 (stereo unspecified)	4.2
C[C@H]1CN([C@@H](C)CO)C(=O)c2cc(NS(C)(=O)=O)ccc2O[C@H]1CN(C)C	22.4
CCc1c(C)nc2cc(-c3cc(C)on3)nn2c1N1CCN(Cc2ccccn2)CC1	-85.2*
COC(=O)c1ccc(Br)o1	34.2
COc1ccc(Nc2nc(-c3nnc(-c4ccc(C)cc4)o3)nc3ccccc23)cc1Cl	276.9
O=C(c1cccc(CC2CCNCC2)c1)N1CCC(O)(Cn2ccnc2)CC1	8.5
Nc1ncccc1CN1CCN(C(c2ccccc2)c2ccccc2)CC1	10.2
Cc1nn(CC(=O)N(C)C(C)Cc2ccccn2)cc1Cl (stereo unspecified)	-5.5
O=C1CCCC[C@]2(CN(C(=O)COc3cccc(F)c3)C[C@H]2c2ccccc2F)N1	-36.1
Cc1ccc2[nH]c(C)c(CC(=O)N3CCCC(c4nnc(-c5ccsc5)o4)C3)c2c1 (stereo unspecified)	-3.5
O=c1[nH]c2ccc(Cl)cc2c(-c2ccccc2)c1C1=NOC(c2ccccc2)C1 (stereo unspecified)	6.4
Cc1ccc(Cn2c(CN3CCC(C(=O)N4CCCC4)CC3)cc3ccccc32)cc1	-2.6
COCC(=O)NC[C@@H]1[C@@H](c2ccccc2)[C@H](CO)N1C(=O)c1ccccc1	-8.3
COc1ccccc1S(=O)(=O)N(C)C[C@H]1OCc2ccccc2-c2ccccc2C(=O)N([C@@H](C)CO)C[C@H]1C	7.5
COc1ccc(C(C)=O)c2c1OCCO2	12.9
C[C@]12CCC3c4ccc(OS(=O)(=O)O)cc4CCC3C1CC[C@H]2O (stereo partly specified)	9.0
Cc1ccc(NC(=O)CC(=O)NCCCn2ccnc2)cc1Cl	7.9
O=Cc1ccc(N2CCCCC2)cc1	-2.7
Cc1noc(C)c1CC(=O)Nc1nnc(CCOc2ccc(Cl)cc2)s1	12.0
CO[C@H]1COC[C@@H]1NC(=O)CCC(=O)Nc1ccccc1SC	7.1
COc1cc2c(cc1Cc1cccc(Cl)c1F)c(=O)c(C(=O)O)cn2[C@H](CO)C(C)C	-58.6
CCCn1c(=O)c(-c2nc(-c3cccc(OCC)c3)no2)c(O)c2ccccc21	92.8
COc1ccc(NC(=O)N2CCN(Cc3nc(-c4ccccc4C)oc3C)CC2)cc1	3.5
Cc1occ(-c2cc(F)ccc2Cl)c1C(=O)NC1Cc2ccccc2C1	-8.8
CC(CCC(=O)NCC(=O)O)C1CCC2C3CCC4CC(O)CCC4(C)C3CC(O)C12C (stereo unspecified)	3.8
O=C(NC[C@@H]1N[C@@H](CO)[C@@H]1c1ccccc1)c1ccccc1F	-14.2
COc1ccccc1C(=O)Nc1ccc(OCc2nnc3c4ccccc4c(C)nn23)cc1	15.7
Cc1ccc(Nc2nc(Nc3ccc(C)cc3)nc(Sc3nncn3C)n2)cc1	-75.2*
CC(C)c1nc(=S)c2ccccc2[nH]1	-0.1
O=C(c1ccco1)N1CCc2ccc(=O)n(Cc3cccnc3)c2CC1	-4.6
COc1ccc(CN(C)C[C@H]2OCCCC[C@@H](C)Oc3ccc(NC(=O)C4CCCCC4)cc3C(=O)N([C@@H](C)CO)C[C@@H]2C)cc1	213.6
CC(C)N(C)Cc1ncn2c1CN(C(=O)COc1ccccc1)CCC2	-7.4
COc1ccc(N2CCCC3(CN(C(=O)NC4CC4)CCO3)C2)cc1 (stereo unspecified)	9.0
COc1cc(CN(C)Cc2ncc[nH]2)cc2c1OCO2	1.2

Reformatted field by field: 4 of the compounds above
O=C(NC[C@@H]1N[C@@H](CO)[C@@H]1c1ccccc1)c1ccccc1F
  Tg IFNy HTS: -14.2

COc1ccccc1C(=O)Nc1ccc(OCc2nnc3c4ccccc4c(C)nn23)cc1
  Tg IFNy HTS: 15.7

Cc1ccc(Nc2nc(Nc3ccc(C)cc3)nc(Sc3nncn3C)n2)cc1
  Tg IFNy HTS: -75.2*

CC(C)c1nc(=S)c2ccccc2[nH]1
  Tg IFNy HTS: -0.1

(more compounds)
SMILES	Tg IFNy HTS
Cc1ccsc1C(C(=O)NC(C)(C)C)N(Cc1cccnc1)C(=O)c1csnn1 (stereo unspecified)	-7.5
Cn1nnc(-c2ccc(C(=O)N3CCCC(N4CCCC4=O)C3)cc2)n1 (stereo unspecified)	-11.1
Fc1ccc2onc(C3CCN(Cc4cc5n(n4)CCNC5)CC3)c2c1	-36.4
Nc1ccc(N)c(C(=O)O)c1	-18.0
OCc1ccc(CN2CCCCC2CN2CCOCC2)o1 (stereo unspecified)	-1.9
CS(=O)(=O)N1C[C@H]2C[C@@H](CC(=O)NCc3cccnc3)O[C@H]2C1	-2.8
CC1CCN(S(=O)(=O)c2ccc3c(c2)CCC(=O)N3CC(=O)NCc2ccc3c(c2)OCO3)CC1	-26.8
O=C1CC(c2cc3ccc(F)cc3[nH]c2=O)c2cc3cn[nH]c3cc2N1 (stereo unspecified)	-2.3
Fc1ccc(Cn2ncc3c2CN(c2nc4ccccc4o2)C3)cc1	-59.1
Cc1ccc(-c2coc(-c3ccc(NC(=O)Nc4ccc5c(c4)OCO5)cc3)n2)c(C)c1	19.4
CC1=CC[C@@H]2CN(c3cc(N4CCN(C)CC4)nc(N)n3)C[C@@H]2C1	-5.8
COCCN1C(=O)CCc2cc(NS(=O)(=O)c3ccccc3)ccc21	-27.2
Cc1ccc(-c2cc(CN3CCCCC3c3ccccn3)on2)cc1 (stereo unspecified)	-8.1
COCCN1CCC2(CC1)CN(CCn1cccn1)C(=O)CO2	1.6
CC(C)n1c(C(=O)NCCCN2CCOCC2)cc2c1c1ccccc1n2C	-13.0
Cc1ccc(C(=O)NCCc2csc(-c3cccc(F)c3)n2)cc1	-23.9
O=C(O)CCC(=O)N1C[C@@H]2C(CC(=O)Nc3cccnc3)[C@@H]2C1 (stereo partly specified)	-7.2
COc1ccc(CCN(C)CCCOc2ccc(S(=O)(=O)c3c(C(C)C)c4ccccc4n3C)cc2)cc1OC	-73.0*
CC(C)CN1CC2CN(S(=O)(=O)c3ccccc3)CC21 (stereo unspecified)	1.1
Cn1ccnc1CN1CCN(Cc2cc3n(n2)CCNC3)CC1	7.1
O=c1[nH]nc(Cc2ccncc2)n1CC1CCCCC1	5.2
CCOC(=O)C1CCCN(C(=O)OC(C)(C)C)C1 (stereo unspecified)	-11.0
COc1ccc2[nH]cc(CCNC(=O)c3ccc(N4CCCC4)c(S(=O)(=O)N4CCCC4)c3)c2c1	7.4
Cc1nn(C)c(C)c1CCC(=O)NCc1cnn2ccccc12	9.9
Cn1ccnc1CC(O)(c1ccccc1)c1ccccc1	?
